ClpP mod: qHTS Assay for Activators of ClpP | ATP-dependent Clp protease proteolytic subunit (Bacillus subtilis (strain 168)), P80244 | purified B. subtilis ClpP, FRET peptide cleavage, 20 min | Potency, µM (series often up to 57.5 µM), inactives show top-dose activity change, negative = active | actives 1.9% (n = 340,000); active = well fitted falling curve with a large enough effect; inconclusive = small, poorly fitted or top-dose-only effect; inactive = no such curve, though single readings can be large or run the other way; also: potency is read from the fitted curve at half-maximal effect; the source files actives as falling curves though it sought activators and does not explain the sign; nearly all actives have a fitted effect of over 65% in size; many hits overshoot -100%
Target sequence (P80244 whole entry, looked up): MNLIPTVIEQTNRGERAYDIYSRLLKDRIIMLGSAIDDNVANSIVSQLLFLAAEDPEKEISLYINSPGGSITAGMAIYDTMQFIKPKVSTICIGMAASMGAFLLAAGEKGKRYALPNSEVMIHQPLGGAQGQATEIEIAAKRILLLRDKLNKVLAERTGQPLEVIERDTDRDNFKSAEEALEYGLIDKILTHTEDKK
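Purified B. subtilis ClpP, 10 microg/mL final in Tris/HCl pH8 with KCl, BSA, glycerol and Tween-20, cleaved an Abz/nitrotyrosine-quenched decapeptide. Fluorescence (ex 320, em 430) was read at 0 and 20 min at room temperature. Delta was normalized to 5.8 microM ADEP and DMSO/no-enzyme controls.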
TRPML1 ag: agonists of human TRPML1 channel. TRPML1-expressing cells, Ca2+ dye fluorescence, FDSS; host cell line not named in the record; reference of the full effect not given here. actives 0.12% (n = 410,000). AID 624414. Q9GZU1. activation, % (concentration not given with the values); in the data active = activation above about 50%; inconclusive = about 30% to 50%; inactive = below about 30%; also: 0% is about no effect; the text of the record puts the active cut at 80%
Target sequence (Q9GZU1 whole entry, looked up): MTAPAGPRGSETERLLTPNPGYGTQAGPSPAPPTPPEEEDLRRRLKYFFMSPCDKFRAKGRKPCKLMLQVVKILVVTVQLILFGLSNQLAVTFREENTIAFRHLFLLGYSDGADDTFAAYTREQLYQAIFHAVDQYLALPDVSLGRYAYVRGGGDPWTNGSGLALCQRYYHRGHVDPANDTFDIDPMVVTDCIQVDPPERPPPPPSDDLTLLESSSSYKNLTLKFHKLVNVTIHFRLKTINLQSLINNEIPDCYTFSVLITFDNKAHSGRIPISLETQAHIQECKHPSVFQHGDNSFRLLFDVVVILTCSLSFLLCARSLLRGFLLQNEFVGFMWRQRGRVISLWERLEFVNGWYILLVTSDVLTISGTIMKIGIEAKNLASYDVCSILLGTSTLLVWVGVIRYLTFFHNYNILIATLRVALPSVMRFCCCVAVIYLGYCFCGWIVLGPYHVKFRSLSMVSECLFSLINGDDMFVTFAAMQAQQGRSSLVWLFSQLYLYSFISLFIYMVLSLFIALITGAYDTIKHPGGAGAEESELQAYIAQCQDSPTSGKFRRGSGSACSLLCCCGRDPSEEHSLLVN
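Agonist activity was taken from a 110 s kinetic Ca2+ dye read on the FDSS after pinning compounds onto TRPML1-DL cells. The cells were seeded at 1,500/well with Tet inducer, incubated about 16 h, then dye-loaded at room temperature.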
gsp agonist: gsp mutant agonism; AID 624287; gsp mutant cells, cAMP HTRF, 30 min; control for the full effect not named in the record; Potency, µM (doses to about 76.9 µM), for inactives: top-dose activation (cAMP increase), hits mostly activators; actives 0.13% (n = 340,000); active = well fitted activation curve with a large enough effect; inconclusive = small, poorly fitted or top-dose-only effect, or another doubt; inactive = no such curve, though single readings can be large or run the other way; cell line not stated here;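 also: phosphodiesterase inhibitor Ro 20-1724 added with compounds to block cAMP breakdown; potency is read from the fitted curve at half-maximal effect; nearly all actives have a fitted effect of over 60% in size; about a fifth of the inactives were tested at one dose only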
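Cells in DMEM/10% FBS with G418 were pretreated with compounds in DMSO plus […] (300 uM stock) for 30 min at 37C. cAMP was measured by HTRF (cAMP-d2 plus anti-cAMP antibody-K) after 30 min at room temperature.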
Menin MLL FP FL: menin-MLL binding inhibition, fluorescein peptide. Fluorescence polarization, fluorescein-MLL peptide displacement from menin. FP activity change, % at 61.4 µM. 290,000 tested, under 10 active. AID 1766; inconclusive = falling polarisation curve, or a change in total fluorescence; inactive = total fluorescence flat and polarisation flat or rising; no compound was filed as active; the % refers to the polarisation; negative = inhibition;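 also: % of control where 0% means no effect; inhibitors lower the polarisation; unlabelled MLL peptide was the positive control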
gsp antag: gsp mutant antagonism | AID 624288 | actives 0.4% (n = 340,000) | gsp-mutant cells, cAMP HTRF, 30 min; control for the full effect not named in the record | Potency, µM (doses to about 76.9 µM), without a hit: at the highest dose activity change, negative = inhibition, hits mostly inhibitors; active = falling curve of any shape with a large fitted effect; inconclusive = falling curve, mostly with a smaller effect; inactive = flat or rising curve; cell line not stated here;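 also: intracellular cAMP measured with PDE inhibitor Ro 20-1724 present during compound exposure; potency is read from the fitted curve at half-maximal effect; % is scaled to controls: 0 for no effect and ±100 for the full control effect; nearly all actives have a fitted effect of over 65% in size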
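Measurement of cellular cAMP by homogeneous time-resolved fluorescence following a 30 min compound exposure at 37C. The PDE inhibitor […] was present throughout; the assay buffer was DPBS with 0.05% BSA and 0.005% Tween 20.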
TRPML1 inh: human mucolipin-1 channel inhibition | Q9GZU1 | TRPML1-inducible cells, Ca2+ dye fluorescence, FDSS; hits give low values; inhibition of EC80 agonist-evoked calcium signal | activity change, negative = inhibition, % (concentration not given with the values) | actives 0.02% (n = 390,000) | AID 624415; in the data active means activity change below about -50%; inconclusive means about -30% to -50%; inactive means above about -30%;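 also: stimulus is agonist 54-4 at its EC80 concentration; % is scaled to controls: 0 for no effect and ±100 for the full control effect; compound concentration not given in the record; the text of the record puts the active cut at -80%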
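Tet-induced TRPML1-DL cells loaded with Ca8 no-wash calcium dye were read kinetically on FDSS. Compound addition was followed by EC80 agonist 54-4 (4 uM final); inhibition was read over 110 s.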
Active calls of the source: *; ? = inconclusive; · = not tested or not shown; [ ] = another dose, or the depositor's remark.

SMILES	ClpP mod	TRPML1 ag	gsp agonist	Menin MLL FP FL	gsp antag	TRPML1 inh
CCOc1ccc(CCNC(=O)CCCn2nc(C)c3sc4ccccc4c3c2=O)cc1	-10.4%	0.1	·	·	·	17.4
CCc1ccc(OCC(=O)N2CCN(c3ccccc3F)CC2)cc1	-0.2%	2.5	6.6%	-1.4	-7.3%	-13.2
CCC1(CC)NC(=O)NC1=O	-1.1%	-0.3	-19.5%	0.6	14.2%	-8.8
Cc1nc2cc(NC(=O)Nc3cccc([N+](=O)[O-])c3)ccc2n1C	-2.4%	0.3	-16.0%[15.4 µM]	1.3	1.5%	33.0
CC(=O)N/C(=C/c1ccccc1)c1ccccc1	2.4%	-1.1	?	·	9.5%	5.3
Cn1nnnc1SCC(=O)N1CCc2ccccc21	-2.3%	-0.3	?	-0.6	7.0%	1.4
O=C(NCc1cc(C(F)(F)F)cc(C(F)(F)F)c1)C1CC(c2ccccc2[N+](=O)[O-])=NO1 (configuration not stated)	-2.8%	1.9	-24.1%	9.3	-13.5%	-5.2
O=c1[nH]c(Cc2ccccc2)nc2ccccc12	·	-0.6	-2.5%[15.4 µM]	-11.1	21.1%	30.6
COc1cccc(-n2cc(C(=O)Nc3cc(OC)c(OC)c(OC)c3)c3ccccc3c2=O)c1	-0.2%	-0.4	·	·	·	-9.0
COc1ccc(C(C(=O)NC(C)(C)C)N(CCc2ccccc2)C(=O)CCC(=O)Nc2cc(C)on2)cc1 (configuration not stated)	40.2%	0.8	-0.7%[15.4 µM]	3.5	-6.4%	-17.4
OCC1(Cc2ccc(Cl)cc2)CCN(Cc2ccccc2F)CC1	0.1%	-0.4	3.9%	-0.3	13.8%	-9.5
CCCCN=C(Nc1ccc(Cl)cc1)c1cccnc1	-0.1%	-0.1	28.9%	-1.4	-11.5%	24.1
COc1ccc(C)cc1NC(=O)c1ccc2c(c1)CCN2S(=O)(=O)c1ccc(Cl)cc1	-1.4%	0.2	·	·	·	56.0
Cc1ccc(Cl)c(N/C=C/C(=O)c2ccccc2)c1	-3.4%	1.1	15.9%	-3.8	-11.7%	-13.4
O=C(NC1c2ccccc2Oc2ccccc21)c1ccc([N+](=O)[O-])cc1	·	2.6	-9.5%	·	6.5%	13.6
O=C(Nc1cccnc1)C1CCN(S(=O)(=O)c2ccc(Cl)cc2)CC1	1.2%	0.3	?	-1.4	8.7%	6.0
Cc1c(NC(=O)CSc2nnnn2-c2ccc(O)cc2)c(=O)n(-c2ccccc2)n1C	-3.8%	0.5	10.7%	4.5	5.7%	-14.1
COc1ccc(C(=O)Nc2nc3ccc(S(=O)(=O)N4CCCC4)cc3s2)cc1	-2.3%	-0.6	·	·	·	6.7
CN(C)c1ccc(N2C(=O)CC(c3ccccc3)CC2=O)cc1	0.5%	-0.5	0.1%[15.4 µM]	1.6	0.9%	6.1
CC1CCCN(C(=O)CCS(=O)(=O)Cc2ccccc2)C1 (configuration not stated)	-1.4%	-0.3	-19.1%	5.4	5.4%	2.2
Cc1ccc(S(=O)(=O)Nc2ccccc2F)cc1C(=O)NCc1ccco1	0.5%	-0.7	?	·	-2.3%	-7.0
COC(=O)Nc1csc2c1NC(=O)CCCC2	·	0.7	22.8%	-1.3	10.7%	-9.4
O=C(NCCN1CCOCC1)c1ccccc1Cl	0.5%	0.7	-23.7%	0.9	8.3%	-13.9
COc1cccc(CNCCSc2nnnn2C)c1OC	0.2%	-0.6	?	-8.0	-2.1%	-4.8
O=S(=O)(NCc1ccccc1Br)c1cccs1	-2.8%	1.1	-0.5%	1.7	2.2%	-8.9
O=C(CC1CCCCC1)NCc1ccccc1Cl	·	0.2	20.1%	-6.3	5.6%	-0.2
COCCn1c(SCC(=O)Nc2ccc(F)cc2F)nc2c([nH]c3ccccc32)c1=O	-8.0%	0.4	-1.8%[15.4 µM]	·	4.5%	-13.9
CCC(C)[C@H](NC(=O)NCc1cccc(OC)c1)C(=O)OC (some centres not stated)	-1.2%	-0.4	-6.1%	0.3	6.9%	23.6
CCCOc1cccc(C(=O)Nc2nnn(CCC)n2)c1	0.8%	-0.1	19.2%	5.2	2.3%	71.4
COc1ccc(NC(=O)CN2CCN(S(=O)(=O)c3ccc(Br)cc3)CC2)c(OC)c1	0.9%	-1.1	-27.7%	·	-17.4%	12.3
CCOC(=O)C1CCN(C(=O)c2ccc3c(c2)sc2nc(-c4ccc(OCC)cc4)cn23)CC1	4.2%	-0.9	·	·	·	-2.3
O=C(CN1C(=O)C2CC=CCC2C1=O)Nc1ccc(F)cc1F (configuration not stated)	-1.1%	1.9	-20.9%	·	7.2%	-22.2
Cc1oc(-c2ccc(Cl)cc2)nc1CS(=O)CC(=O)NCCN1CCCC1 (configuration not stated)	-25.2%	-0.4	-0.1%	-1.4	4.6%	-11.9
COCCNC(=O)Cn1cc(S(=O)(=O)N2CCN(c3ccccc3F)CC2)c2ccccc2c1=O	·	1.7	?	3.7	-18.1%	19.1
CCO[C@@H]1OC(C(=O)NCc2nc3ccccc3[nH]2)=C[C@H](C2CC2)[C@H]1CCCO	-1.3%	-0.3	-46.4%[inhibitor]	0.7	18.9%	23.7
CCOC(=O)C1=C(CN2CCN(c3ccc(Cl)cc3)CC2)NC(=O)NC1c1ccc(F)cc1 (configuration not stated)	-0.4%	3.4	·	·	·	70.3
O=C(c1cc(-c2ccc(Cl)c(Cl)c2)on1)N1CCCCCC1	·	-0.4	23.0%	0.6	6.6%	33.8
O=S(=O)(NCc1ccc2c(c1)OCO2)c1cccc2nsnc12	-2.5%	0.2	-5.0%	-0.4	7.9%	2.9
Clc1cc(Cl)cc(Nc2ncnc(-n3cccc3)n2)c1	·	2.1	-26.8%	0.9	-3.5%	2.1
Cc1cc(C)nc(N(C#N)S(=O)(=O)c2ccccc2)n1	-15.4%	-0.3	-3.4%	-1.4	3.5%	28.2
COc1ccc(/C(O)=C2/C(=O)C(=O)N(CCCC(=O)O)C2c2ccc(OC)c(OC)c2)cc1 (configuration not stated)	-0.6%	0.2	2.0%	0.7	8.8%	12.6
COc1ccc(-c2nnc(SCC(=O)NCCc3ccccc3)nc2-c2ccc(OC)cc2)cc1	1.8%	3.8	·	·	·	9.3
CCOC(=O)c1cc(-c2nnc(-c3ccc(Oc4ccccc4)cc3)o2)c(C)nc1C	3.16µM*	9.5	-116.0%[inhibitor]	1.3	0.9%	-17.7
CCn1c(CNC(=O)COc2ccc(C(C)C)cc2)nnc1SCC(=O)Nc1cc(F)ccc1C	0.3%	1.4	18.3%	1.8	?	-11.9
Cc1ccc(OCC(=O)Oc2ccc(C)c(C)c2)cc1	-1.2%	1.1	-0.3%[15.4 µM]	7.3	5.8%	-11.5
OCCOCCN1CCN(C(=S)Nc2ccccc2)CC1	-3.2%	-0.3	11.1%	-0.4	4.8%	-5.8
Cc1cc(C)nc(-n2ncc3c2CC(c2ccccc2C)CC3=O)n1 (configuration not stated)	-0.1%	1.1	12.5%	0.7	-7.9%	22.6
Cc1ccc(Nc2nc(N)nc(CSc3nnc(-c4ccncc4)o3)n2)cc1	1.3%	-1.2	-57.0%[inhibitor]	-0.1	-1.1%	5.8
CN(CC(=O)Nc1nc2ccccc2s1)S(=O)(=O)c1ccc(Cl)cc1	-1.0%	1.8	-6.7%	1.0	31.6µM*	-5.1
CCC(=O)c1ccc(OCC(O)CN2CCN(c3cccc(C(F)(F)F)c3)CC2)cc1 (configuration not stated)	-9.7%	1.3	20.4%	0.9	-4.5%	-4.2
(list continues)
SMILES	ClpP mod	TRPML1 ag	gsp agonist	Menin MLL FP FL	gsp antag	TRPML1 inh
O=C(Cn1ncc2ccccc21)N1CCN(c2cccc(C(F)(F)F)c2)CC1	-5.3%	-0.6	-58.6%[inhibitor]	-1.7	3.8%	14.4
CC(C)C(=O)Nc1nc(-c2ccc([N+](=O)[O-])cc2)cs1	-0.5%	0.8	-17.8%	-0.9	-30.4%	-11.9
O=C(COC(=O)C1CCC1)Nc1ccccc1Sc1ccccc1	-0.1%	1.4	?	8.8	-1.5%	40.8
COC(=O)Cc1ccc(NC(=S)NNC(=O)c2ccccc2Br)cc1	-1.4%	0.2	-30.1%	2.0	1.9%	8.6
CCN=C(NCC)SC1CC(=O)N(c2ccc(OC)cc2)C1=O (configuration not stated)	0.2%	0.7	10.8%	1.6	2.0%	10.6
COc1cc(C#N)ccc1OC(=O)c1cccc(S(=O)(=O)N2CCN(C)CC2)c1	-6.4%	0.9	5.5%[15.4 µM]	·	-2.4%	7.3
CCCCN1C(=O)/C(=C/C=C2/CC(C)(C)CN2C)SC1=S	1.1%	52.8*	-12.8%	?	-16.0%	-9.5
CCCn1c2ccccc2c2cnn(CC(=O)N(C)c3ccccc3CC)c(=O)c21	4.3%	1.1	·	·	·	41.1
CCCc1nnc(SCc2cc(=O)c3c(C)cc(C)cc3[nH]2)n1C	-0.3%	2.1	·	·	·	-23.5
Cc1nc2cc(-c3cccc(F)c3)nn2c(C)c1CCC(=O)N1CCN(c2ccc(F)cc2)CC1	-3.4%	-0.4	·	·	·	11.3
CCc1cccc(NC(=O)CCCn2nc(C)c3c(C)n(-c4ccccc4)nc3c2=O)c1	0.2%	1.5	13.2%	·	-12.9%	-2.9
CCOC(=O)c1cc(-c2ccc(C)cc2)n(CCC(=O)NCc2ccccc2)c1C	-4.0%	2.6	·	·	·	14.5
O=C(Nc1cccc(-c2nc3ccccc3s2)c1)c1ccc2c(c1)OCO2	?	0.1	-13.8%	-5.2	-3.7%	-2.7
CC(C)(O)C#Cc1ccc(C(=O)NCc2cccs2)s1	0.2%	-0.5	-28.6%	6.2	7.9%	-5.0
On1onc2c3cc(-c4ccccc4)nc3ccc21	0.5%	-0.4	-4.1%	-1.0	?	58.9
CCOC(=O)c1nnsc1NC(=O)Nc1ccc(OC)cc1	0.8%	-0.9	-3.9%[15.4 µM]	2.5	9.3%	-10.6
COc1cc(C)nc(N2CCCC(C(=O)Nc3cccc(Cl)c3C)C2)n1 (configuration not stated)	-0.2%	-1.0	0.0%	2.9	1.2%	-2.6
O=C(COC(=O)CNS(=O)(=O)/C=C/c1ccccc1)Nc1cccc2ccccc12	·	3.9	-5.5%[15.4 µM]	-0.5	3.6%	1.3
NNC(=O)CCCCCCCCCCOCCCCO	·	1.5	?	2.8	-4.3%	-3.9
COc1ccc(C2C(C(=O)c3ccco3)=C(O)C(=O)N2CC2CCCO2)cc1 (configuration not stated)	·	-0.3	0.8%	-6.7	3.4%	-19.0
COc1nc(-c2ccc(Cl)cc2)ccc1-c1noc(-c2ccco2)n1	-23.1%	-0.3	23.0%	-0.2	5.6%	12.1
COc1ccc(NC(=O)CN(c2cc(C)cc(C)c2)S(=O)(=O)c2c(C)noc2C)cc1OC	0.7%	0.8	?	-1.1	-13.9%	-4.6
CC(=O)Nc1c([N+](=O)[O-])cc(C)c(Cl)c1[N+](=O)[O-]	·	-0.1	25.6%	1.0	4.8%	30.4

Screens deposited in PubChem by National Center for Advancing Translational Sciences (NCATS).
